AmpC no deterg: AmpC beta-lactamase inhibition without detergent; Potency, µM (top dose mostly 57.1 µM), without a hit: at the top dose activity change, negative = inhibition, usual class: inhibitors; AmpC nitrocefin hydrolysis, absorbance 480 nm, 0.0001% Triton; P00811; 330,000 tested, 0.52% active;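 also: plate controls were no compound for no effect and no enzyme for full effect; nearly all actives have a fitted effect of over 20% in size; some results filed as inactive show a strong effect at the top dose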
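20 mM phosphate pH 7.0 + 0.01% (detergent screen) or 0.0001% Triton X-100; 5.3 nM AmpC reagent; cpd preinc 15 min RT; nitrocefin (800 uM stock) to start; A480 q20 s × 4 min; Activity was normalised to no-enzyme and no-compound control wells.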
LmPK inh: inhibitors of Leishmania mexicana pyruvate kinase; Potency, µM (highest dose often 57.5 µM), for the others: at the top dose activity change, negative = inhibition, hits mostly inhibitors; 290,000 tested, 0.37% active; Q27686; purified LmPK, Kinase-Glo ATP luminescence, 1 h; AID 1721
Target sequence (Q27686 whole entry, looked up): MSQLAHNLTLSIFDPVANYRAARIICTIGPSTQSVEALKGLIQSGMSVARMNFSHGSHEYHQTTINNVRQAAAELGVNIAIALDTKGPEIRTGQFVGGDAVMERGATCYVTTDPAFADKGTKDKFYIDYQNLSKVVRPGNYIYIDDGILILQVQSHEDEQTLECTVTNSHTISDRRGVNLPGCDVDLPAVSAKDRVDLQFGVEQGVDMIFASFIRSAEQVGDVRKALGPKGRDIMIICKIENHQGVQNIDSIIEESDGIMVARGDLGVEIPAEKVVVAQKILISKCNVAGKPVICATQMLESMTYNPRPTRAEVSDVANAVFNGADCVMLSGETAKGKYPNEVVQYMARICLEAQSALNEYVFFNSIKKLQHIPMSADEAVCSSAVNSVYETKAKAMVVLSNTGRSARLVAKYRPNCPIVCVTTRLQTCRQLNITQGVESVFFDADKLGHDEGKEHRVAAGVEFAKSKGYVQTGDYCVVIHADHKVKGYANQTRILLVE
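Purified LmPK (0.1 nM) converted ADP (0.1 mM) to ATP with PEP (0.5 mM) in imidazole buffer pH 7.2 with KCl and MgCl2, 1 h at room temperature. ATP was read by Kinase-Glo luminescence; data normalized to uninhibited and no-enzyme controls.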
Tb PYK inh: T. brucei pyruvate kinase inhibition; AID 624173; Potency, µM (series often up to 76.8 µM), inactives show at the top dose activity, negative = inhibition, hits mostly inhibitors; TbPYK enzyme, Kinase-Glo Plus ATP luminescence, 45 min; 410,000 tested, 0.12% active; also: nearly all actives have a fitted effect of over 50% in size
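In this concentration-response screen, enzyme-free wells defined baseline while DMSO plates tracked drift. Each reaction combined TbPYK, substrate, compound and 130 uM ADP for 45 min at room temperature. Kinase-Glo Plus luminescence gave the signal.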
* marks the source's active call; other numbers are inactive results; ? = inconclusive; . = not tested or not shown; & = joins results of further samples; [ ] = another dose, or the depositor's remark. Calls follow the shape of the dose curve; as a rule, active = well fitted curve in the direction sought with a large enough effect; inconclusive = small, poorly fitted or top-dose-only effect, or another doubt; inactive = no such curve, though single readings can be large; an effect the other way counts as inactive or inconclusive. Unless noted, % is scaled to controls: 0 for no effect and ±100 for the full control effect; potency is read from the fitted curve at half-maximal effect.

[1] C[C@@H]1O[C@@H]1P(=O)(O)O
  AmpC no deterg = -12% | LmPK inh = . | Tb PYK inh = -3%

[2] Cc1cc(C)c(/C=C2\C(=O)Nc3ccccc32)[nH]1
  AmpC no deterg = -24% | LmPK inh = -3% | Tb PYK inh = -3%&-11%

[3] O=[N+]([O-])c1cc2c(cc1/C=N/Nc1nc(Nc3ccccc3)nc(N3CCCCC3)n1)OCO2
  AmpC no deterg = -28% | LmPK inh = -3% | Tb PYK inh = 2%

[4] C[C@@H]1O[C@@H](O[C@H]2C[C@@H](O)[C@]3(CO)[C@H]4[C@H](O)C[C@]5(C)[C@@H](C6=CC(=O)OC6)CC[C@]5(O)[C@@H]4CC[C@]3(O)C2)[C@H](O)[C@H](O)[C@H]1O
  AmpC no deterg = -18%&2% | LmPK inh = -3% | Tb PYK inh = -1%

[5] CC(=O)O[C@H]1C(=O)[C@]2(C)[C@H]([C@H](OC(=O)c3ccccc3)[C@]3(O)C[C@H](OC(=O)[C@H](O)[C@@H](NC(=O)c4ccccc4)c4ccccc4)C(C)=C1C3(C)C)[C@]1(OC(C)=O)CO[C@@H]1C[C@@H]2O
  AmpC no deterg = . | LmPK inh = . | Tb PYK inh = 7%

[6] CN1C[C@H](C(=O)N[C@]2(C)O[C@@]3(O)[C@@H]4CCCN4C(=O)[C@H](Cc4ccccc4)N3C2=O)C[C@@H]2c3cccc4[nH]cc(c34)C[C@H]21
  AmpC no deterg = . | LmPK inh = . | Tb PYK inh = 1%

[7] N#Cc1ccc(CNC(=O)N2CCOCC2)cc1
  AmpC no deterg = -11% | LmPK inh = 1% | Tb PYK inh = -1%

[8] NC(=O)C1CCN(C(=O)Nc2ccccc2)CC1
  AmpC no deterg = -6% | LmPK inh = 0% | Tb PYK inh = 1%

[9] Cc1cccn2c(=O)c3cc(C(=O)NCCc4ccccc4)c(=N)n(CCCn4ccnc4)c3nc12
  AmpC no deterg = -2% | LmPK inh = -7% | Tb PYK inh = -4%

[10] CC(C)(C)NC[C@H](O)COc1nsnc1N1CCOCC1
  AmpC no deterg = -8%&-13% | LmPK inh = -4% | Tb PYK inh = -18%&-18%&0%&6%

Complete entries, quoted from the list. Values in the order: AmpC no deterg	LmPK inh	Tb PYK inh
Results for C[C@@H]1O[C@@H](O[C@H]2C[C@@H](O)[C@]3(CO)[C@H]4[C@H](O)C[C@]5(C)[C@@H](C6=CC(=O)OC6)CC[C@]5(O)[C@@H]4CC[C@]3(O)C2)[C@H](O)[C@H](O)[C@H]1O = -18%&2%	-3%	-1%
Results for Cc1cccn2c(=O)c3cc(C(=O)NCCc4ccccc4)c(=N)n(CCCn4ccnc4)c3nc12 = -2%	-7%	-4%
Results for NC(=O)C1CCN(C(=O)Nc2ccccc2)CC1 = -6%	0%	1%
Results for O=[N+]([O-])c1cc2c(cc1/C=N/Nc1nc(Nc3ccccc3)nc(N3CCCCC3)n1)OCO2 = -28%	-3%	2%
Results for C[C@@H]1O[C@@H]1P(=O)(O)O = -12%	.	-3%

Results in sequence from the list:
Nos. 2–8 in AmpC no deterg: -24%, -28%, -18%&2%, ., ., -11%, -6%

The main list resumes with the 4 entries that preceded the break.
[7] N#Cc1ccc(CNC(=O)N2CCOCC2)cc1
  AmpC no deterg = -11% | LmPK inh = 1% | Tb PYK inh = -1%

[8] NC(=O)C1CCN(C(=O)Nc2ccccc2)CC1
  AmpC no deterg = -6% | LmPK inh = 0% | Tb PYK inh = 1%

[9] Cc1cccn2c(=O)c3cc(C(=O)NCCc4ccccc4)c(=N)n(CCCn4ccnc4)c3nc12
  AmpC no deterg = -2% | LmPK inh = -7% | Tb PYK inh = -4%

[10] CC(C)(C)NC[C@H](O)COc1nsnc1N1CCOCC1
  AmpC no deterg = -8%&-13% | LmPK inh = -4% | Tb PYK inh = -18%&-18%&0%&6%

[11] NS(=O)(=O)c1ccc(NC(=O)Nc2ccc(Cl)cc2)cc1
  AmpC no deterg = -33% | LmPK inh = -2% | Tb PYK inh = 4%

[12] NS(=O)(=O)c1cc(C(=O)O)c(NCc2ccco2)cc1Cl
  AmpC no deterg = . | LmPK inh = . | Tb PYK inh = 16%&-3%

[13] Fc1ccc(C(c2ccc(F)cc2)N2CCN(C/C=C/c3ccccc3)CC2)cc1
  AmpC no deterg = -6% | LmPK inh = 4% | Tb PYK inh = 12%

[14] NCC1CCC(C(=O)O)CC1 (configuration not stated)
  AmpC no deterg = . | LmPK inh = . | Tb PYK inh = -4%[33.2 µM]

[15] CCOC(=O)c1cncn1[C@@H](C)c1ccccc1
  AmpC no deterg = 2% | LmPK inh = . | Tb PYK inh = 0%

[16] COc1ccc(C(C(=O)NC(C)(C)C)N(C(=O)CNC(=O)c2cccs2)c2ccc(C(C)C)cc2)cc1OC (configuration not stated)
  AmpC no deterg = 129%[activator] | LmPK inh = 3% | Tb PYK inh = -4%

[17] Cc1ccc(NC(=O)c2sccc2SCc2cccc(C(F)(F)F)c2)cc1
  AmpC no deterg = -18% | LmPK inh = -1% | Tb PYK inh = 0%

[18] O=C(Nc1ccc2c(c1)OCCO2)C1CCCC1
  AmpC no deterg = -39% | LmPK inh = . | Tb PYK inh = 0%

[19] COc1cccc(C(=O)Nc2cc3c(cc2N2CCOCC2)n(C)c(=O)n3C)c1
  AmpC no deterg = -21% | LmPK inh = 3% | Tb PYK inh = -18%

[20] CCN(CC)CCC[C@H](C)Nc1ccnc2cc(Cl)ccc12
  AmpC no deterg = . | LmPK inh = . | Tb PYK inh = 0%

[21] C=CCOC(Cn1ccnc1)c1ccc(Cl)cc1Cl (configuration not stated)
  AmpC no deterg = -1% | LmPK inh = . | Tb PYK inh = -10%&-6%

[22] CN[C@H]1C[C@H]2O[C@@](C)([C@H]1OC)n1c3ccccc3c3c4c(c5c6ccccc6n2c5c31)C(=O)NC4
  AmpC no deterg = 36% | LmPK inh = 0% | Tb PYK inh = .

[23] CN(C/C=C/c1ccccc1)Cc1cccc2ccccc12
  AmpC no deterg = -17% | LmPK inh = . | Tb PYK inh = 0%

[24] O=C(CCCN1CCC2(CC1)C(=O)NCN2c1ccccc1)c1ccc(F)cc1
  AmpC no deterg = -25% | LmPK inh = -1% | Tb PYK inh = 0%&-3%

[25] OCCC1CN(Cc2ccc3nsnc3c2)CCN1C1CCCC1 (configuration not stated)
  AmpC no deterg = -19% | LmPK inh = 16% | Tb PYK inh = -8%

[26] COCc1cc(C)nc(SCC(=O)c2ccc(O)c(O)c2)c1C#N
  AmpC no deterg = ? | LmPK inh = 19% | Tb PYK inh = ?

[27] CC1CC(C)CN(Cc2nc(N)nc(Nc3ccccc3)n2)C1 (configuration not stated)
  AmpC no deterg = -25% | LmPK inh = -2% | Tb PYK inh = -14%

[28] CCOC(=O)c1cc2c(=O)n3cccc(C)c3nc2n(Cc2ccco2)c1=NC(=O)c1ccccc1
  AmpC no deterg = -22% | LmPK inh = 2% | Tb PYK inh = 3%&-7%

[29] Clc1ccc(N2CCN(Cc3c[nH]c4ncccc34)CC2)cc1
  AmpC no deterg = -21% | LmPK inh = . | Tb PYK inh = 0%

Compound activity: PubChem BioAssay, National Center for Advancing Translational Sciences (NCATS)

A portion of the library; rates above refer to the full screens.
